Compound activity: PubChem BioAssay, National Center for Advancing Translational Sciences (NCATS)
Six1-Eya2 inh: Six1/Eya2 interaction inhibition; 360,000 compounds, 0.56% hits; activity change, % (test concentration not listed); AlphaScreen GST-Six1/His-Eya2 binding, biochemical; active compounds read low; control for the full effect not named in the record; AID 651725; Q15475+O00167; in the data active = activity change below about -65%; inconclusive = about -30% to -65%; inactive = above about -30%; also: % is scaled to controls: 0 for no effect and ±100 for the full control effect
Target sequence (O00167 whole entry, looked up): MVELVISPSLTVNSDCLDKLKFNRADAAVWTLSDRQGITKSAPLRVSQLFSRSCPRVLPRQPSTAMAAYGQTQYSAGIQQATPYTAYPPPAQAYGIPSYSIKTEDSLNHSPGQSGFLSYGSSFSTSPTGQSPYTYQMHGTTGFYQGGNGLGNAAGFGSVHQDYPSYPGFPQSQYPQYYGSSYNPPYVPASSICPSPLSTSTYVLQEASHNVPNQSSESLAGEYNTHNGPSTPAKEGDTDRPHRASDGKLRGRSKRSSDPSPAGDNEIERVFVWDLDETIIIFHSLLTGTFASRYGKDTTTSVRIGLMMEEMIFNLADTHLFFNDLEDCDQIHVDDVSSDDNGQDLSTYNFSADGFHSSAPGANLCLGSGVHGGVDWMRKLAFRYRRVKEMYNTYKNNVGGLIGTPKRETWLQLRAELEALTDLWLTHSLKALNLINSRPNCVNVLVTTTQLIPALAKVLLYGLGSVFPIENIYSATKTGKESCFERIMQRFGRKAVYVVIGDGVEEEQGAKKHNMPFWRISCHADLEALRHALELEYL
Target sequence (Q15475 whole entry, looked up): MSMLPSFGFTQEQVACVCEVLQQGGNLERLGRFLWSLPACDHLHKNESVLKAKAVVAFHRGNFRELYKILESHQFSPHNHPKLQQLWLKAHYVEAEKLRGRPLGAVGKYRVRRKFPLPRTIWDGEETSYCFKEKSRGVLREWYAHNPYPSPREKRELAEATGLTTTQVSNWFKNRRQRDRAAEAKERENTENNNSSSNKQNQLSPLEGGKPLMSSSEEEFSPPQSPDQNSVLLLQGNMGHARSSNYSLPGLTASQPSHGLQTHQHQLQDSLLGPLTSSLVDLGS
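Six1/Eya2 binding was read as AlphaScreen signal after compounds were pinned into GST-Six1 plus His-tagged Eya2 (5X stock 250/500 nM) in pH 8.0 Tris/NaCl/TCEP buffer, beads added, then incubated 1 h, 37 C, dark.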
D2 agonist: activates the human D2 dopamine receptor; activation, % (no concentration beside the values); P14416; 360,000 compounds, 0.084% hits; DiscoveRx PathHunter D2 beta-arrestin, luminescence, 90 min; 100% = 57 uM dopamine signal; in the data active = activation above about 40%; inconclusive = about 15% to 40%; inactive = below about 15%; also: compound concentration not given in the record; the text of the record calls up to 30% inactive
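Agonist mode: compounds alone added to overnight-plated D2 PathHunter cells for 90 min at 37 C, with 57 uM final dopamine (EC100) defining full response. Beta-arrestin recruitment detected by chemiluminescent reagent, read after 1 h at ambient temperature.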
PINK1 expr mod: changes PINK1 expression | PINK1 immunofluorescence, high-content cytometry, 24 h | Potency, µM (highest dose often 76.6 µM), for the others: top-dose activation (PINK1 increase), hits mostly activators | 410,000 compounds, 0.2% hits | AID 624263; active = well fitted activation curve with a large enough effect; inconclusive = small, poorly fitted or top-dose-only effect; inactive = flat fitted curve, though single readings scatter; cell line not stated here;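 also: potency is read from the fitted curve at half-maximal effect; % of control where 0% means no effect; nearly all actives have a fitted effect of over 65% in size; a mitochondrial uncoupler was the plate control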
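PINK1 protein level read as immunofluorescence by microplate cytometer in a fixed, stained stable cell line after 24 h exposure to five compound concentrations, with CCCP as control.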
TRPML1 ag: activates the human TRPML1 channel; Q9GZU1; TRPML1-expressing cells, Ca2+ dye fluorescence, FDSS; host cell line not named in the record; reference of the full effect not given here; activation, % (no concentration beside the values); 410,000 compounds, 0.12% hits; in the data active = activation above about 50%; inconclusive = about 30% to 50%; inactive = below about 30%; also: 0% is about no effect; the text of the record puts the active cut at 80%
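TRPML1-DL cells, Tet-induced overnight (~16 h, 37 degrees C), loaded 45-90 min at room temperature with Ca8 no-wash calcium dye plus quencher. FDSS fluorescence: 10 s baseline, compound pin-transfer, 110 s agonist read, then EC80 54-4 (4uM final) and 110 s antagonist read.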
D2 PAM: positive allosteric modulators of human D2 dopamine receptor | potentiation, % (concentration not given with the values) | DiscoveRx D2 beta-arrestin cells, luminescence, 90 min; 100% = 57 uM dopamine signal | 360,000 compounds, 0.23% hits | P14416; active = potentiation of 50% or more; inconclusive = 30% to 50%; inactive = 30% or less;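 also: tested on top of an EC20 dose of dopamine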
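D2 cells co-treated with compound plus 50 nM dopamine (EC20) for 90 min at 37 deg C to detect potentiation. Beta-arrestin recruitment was read as enzyme-fragment luminescence after 1 h at ambient temperature. Full response was set by 57 uM dopamine.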
TRPML1 inh: blocks the human TRPML1 channel; Q9GZU1; TRPML1-inducible cells, Ca2+ dye fluorescence, FDSS; active compounds read low; inhibition of EC80 agonist-evoked calcium signal; activity change, negative = inhibition, % (no concentration beside the values); 390,000 compounds, 0.02% hits; AID 624415; in the data active means activity change below about -50%; inconclusive means about -30% to -50%; inactive means above about -30%;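 also: stimulus is agonist 54-4 at its EC80 concentration; % is scaled to controls: 0 for no effect and ±100 for the full control effect; compound concentration not given in the record; the text of the record puts the active cut at -80%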
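Calcium fluorescence in TRPML1-DL cells induced overnight with Tet: a 110 s read after compound pin addition, then a 110 s antagonist read after challenge with 54-4 at 4 uM final (EC80).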
Numbers without * were called inactive; ? = inconclusive; / = no result given; [ ] = remark or other dose.

The line under a structure holds: TRPML1 inh, TRPML1 ag, PINK1 expr mod, Six1-Eya2 inh, D2 PAM, D2 agonist
- CC1=NN(c2ccccc2)C(=O)C1C=Nc1ccc(N(C)C)cc1 (configuration not stated)
  11, 0.6, 0.7%, ?, 8, 2.7
- NS(=O)(=O)c1ccc(CCNc2ccn3nc(-c4cccc(C(F)(F)F)c4)cc3n2)cc1
  /, -0.3, 6.8%, 6, -1, 8.9
- Cc1nnc(SC(C)C(=O)NC2CCCCC2C)n1N (configuration not stated)
  3, -0.2, 1.3%, 2, -3, -1.7
- Cc1ccc(-c2cc(C(=O)NNC(=O)c3csc(N4CCOCC4)n3)c3ccccc3n2)cc1
  -3, -0.3, 0.2%, -15, -3, -0.5
- O=C(Cc1ccccc1)N/N=C/C=C/c1ccccc1[N+](=O)[O-]
  -2, 0.7, 4.3%, 4, -14, -2.7
- Cc1c(C(=O)N2CCCCCC2)c(S(=O)(=O)NCc2ccc(Br)cc2)c(C)n1C
  -1, 1.6, -0.6%, /, /, /
- O=C(CNC(=O)c1ccc(Br)cc1)NCC(=O)OCC(=O)c1ccccc1
  -2, 1.5, 2.1%, 3, -2, 0.9
- CCN1CCN(CC(=O)Nc2nc3ccc(OC)cc3s2)CC1
  11, -0.2, 1.6%, 7, -2, -0.2
- Cc1ccc(NS(=O)(=O)c2cccc(C(=O)N3CCCCCC3)c2)cc1
  -2, 0.8, -2.2%, 1, -3, 1.1
- O=C(Nc1ccccc1)Nc1ccc2ccccc2c1
  /, /, 0.6%, 2, -3, -5.0
- CCc1ccc2oc(-c3cccc(NC(=O)c4cccnc4)c3)nc2c1
  -9, -0.1, -1.4%, 0, 10, 5.1
- CC1(C)CC(NC(=O)C23CCC(C)(/C(=N/O)C2)C3(C)C)CC(C)(C)N1 (configuration not stated)
  23, -0.1, /, 2, -13, -2.7
- CCOC(=O)c1c(-c2ccco2)csc1NC(=O)COC(=O)c1cnccn1
  -23, 0.3, -0.1%, -9, 3, -0.4
- CCOC(=O)c1c(-c2cccs2)csc1NC(=O)COC(=O)c1c(C)noc1C
  -3, 1.6, 23%[38.3 µM], 6, -7, -0.4
- CCCCCn1c(CN2CCN(C(=O)OCC)CC2)nc2c1c(=O)[nH]c(=O)n2C
  10, 0.2, ?, 3, -4, -0.6
- O=C(NN1CCOCC1)c1cc(-c2cccs2)nc2ccccc12
  -4, 0.3, -0.3%, 7, 10, -2.3
- Cc1ccc(S(=O)(=O)N(C)c2ccc(C(=O)NCC3CCCO3)cc2)cc1 (configuration not stated)
  4, 0.0, -2.2%, 3, -4, -4.0
- COc1cccc(NC2c3ccccc3C(=O)N2Cc2ccccc2Cl)c1 (configuration not stated)
  -7, 0.1, 1.5%, -7, -3, 8.1
- Cc1cccc2cc(C3CC(c4cccs4)=NN3S(C)(=O)=O)c(Cl)nc12 (configuration not stated)
  7, 0.8, -1.3%, -9, -15, -4.0
- CC1(C)CC(NC(=O)CSc2ccccc2)CC(C)(C)N1
  -6, 0.1, -0.1%, 8, -3, 1.6
- Cc1ccc2c(c1)C(=O)C(=O)N2Cc1ccc(Br)cc1
  15, 2.4, -1.0%, 2, -30, -13
- CS(=O)(=O)N1CCN(c2ccc([N+](=O)[O-])cc2F)CC1
  4, 0.4, -0.4%, -7, -6, -1.8
- Cc1noc(NS(=O)(=O)c2ccc(NC(=O)C34CC5CC(C3)CC(n3cnc(Br)n3)(C5)C4)cc2)c1C
  -1, 0.2, -1.1%, 4, 0, -2.4
- CCOC(=O)C1=CCN(S(=O)(=O)c2ccccc2C)C1c1ccccc1 (configuration not stated)
  -27, -0.6, 5.2%, 21, -4, -2.4
- CCN(CC)C(=O)C1=C(C)N(Cc2ccccc2)C(=O)C(CC(=O)NCc2cccc3ccccc23)C1 (configuration not stated)
  1, -0.4, 0.1%, -1, 2, -9.1
- O=C1c2ccccc2C(=O)N1CSc1ncccn1
  24, -0.1, 3.7%, 5, 3, 0.5
- COc1ccc2c(CNC3CCCCCC3)c(C(=O)O)n(Cc3cccc(F)c3)c2c1
  -19, 2.0, -0.7%, /, /, /
- COc1ccc(CN2CCc3ccc(NC(=O)CCc4ccccc4OC)cc3C2)c(O)c1
  15, 0.0, -1.6%, -12, -18, -0.6
- C=C(c1ccc(OCCO)cc1)c1ccc(OCCO)cc1
  -3, -0.9, -0.6%, -2, -15, -1.6
- O=C(NCC(F)(F)F)N1CCOCC1
  9, -0.4, 0.4%, 11, -11, -0.3
- CCCn1nnc(NC(=O)C(C)Oc2ccc(Cl)cc2Cl)n1 (configuration not stated)
  -4, -0.4, 4.2%, 0, -7, -4.3
- O=C(c1cc2ccccc2oc1=O)N(Cc1cccs1)CC1CCCO1 (configuration not stated)
  -2, -0.4, -1.1%, -12, -8, 1.5
- COc1cccc(COC(=O)c2ccc3c(c2)NC(=O)C(C)S3)c1OC (configuration not stated)
  10, 0.5, 3.2%, 12, 7, 7.3
- O=C(Cn1nnc(-c2ccccc2F)n1)Nc1cccc2ncccc12
  31, -0.1, 0.6%, 0, -1, -5.5
- CCOC(=O)c1c(NC(=O)CSc2nnc(CN3CCOCC3)n2C)sc2c1CCCC2
  25, -0.9, -0.4%, -6, -2, -1.9
- CC[C@@]12C(=O)N(c3cccc(Br)c3)C(=O)N1[C@H](c1ccc(F)cc1)[C@@H]1C(=O)N(C3CCCCC3)C(=O)[C@@H]12
  38, -0.4, 0.5%, -8, -12, 1.7
- Cc1cc(C)c(NC(=O)C2CCN(c3nn4c(=O)cc(C)nc4s3)CC2)c(C)c1
  -27, -0.9, 1.4%, /, /, /
- COC(=O)c1ccc(OC)c(Cn2c(=O)n(-c3cccc(Cl)c3)c(=O)c3c2c2cc(C)ccc2n3C)c1
  -5, 1.0, 2.0%, /, /, /
- O=C(COC(=O)c1ccccc1NC(=O)c1ccco1)NCCC1=CCCCC1
  -18, 2.1, 9.7%, -6, -25, -0.2
- CSc1nsc(SCC(=O)Nc2ccccn2)n1
  -3, 0.8, -2.0%, 1, -6, -1.9
- NNC(=O)c1[nH]c2ccccc2c1-c1ccccc1
  3, -0.5, 6.2%, 4, -23, 11
- Cn1nccc1CNC(=O)c1c(Cl)cnn1C
  -14, -0.2, 0.5%, 25, -3, -2.6
- CC1(C(=O)N(c2ccccc2)C(C(=O)NC2CCCC2)c2ccccn2)CC(=O)N=C2C=CC=CN21 (configuration not stated)
  11, 1.7, 3.0%, -1, -12, -1.9
- CCc1cc2c(SCC(=O)N3CC(=O)Nc4ccccc43)ncnc2s1
  -2, 3.0, -1.2%, -4, 2, -3.6
- O=Cc1ccc(N2CCCC2)c(F)c1
  -10, -0.5, -1.8%, 0, 2, -2.8
- S=c1[nH]nc(-c2ccncc2)n1/N=C/C=C/c1ccco1
  19, 0.7, -0.1%, -11, -8, -6.5
- CC(C)=CCC12Oc3cc(O)ccc3C1(O)Oc1cc3c(c(O)c1C2=O)C=CC(C)(C)O3 (configuration not stated)
  /, /, -1.3%, -7, -17, -3.2
- Cc1ccc(CCNC(=O)c2cc(C)nn2-c2ccccc2)cc1
  -8, 0.4, 2.0%, 9, -6, -2.4
- Cc1cc(NC(=O)CSc2ncc(C(=O)O)n2-c2ccc(F)cc2)no1
  9, -0.6, 3.6%, -1, -1, 2.7
- c1ccc(CCCNCCCn2cnc3c(OCc4ccccc4)ncnc32)cc1
  1, 0.1, -1.2%, -2, /, -2.6
- C=CCn1cccc(C(=O)Nc2ccc(N(C)C)cc2)c1=O
  -19, 0.3, 2.4%, -17, -15, -1.0
- O=C(Nc1oc2ccccc2c(=O)c1-c1ccccc1)c1ccco1
  -3, -0.3, 1.7%, 1, 1, -2.7
- O=C(NC(=S)Nc1cccc(O)c1)C12CC3CC(CC(C3)C1)C2
  -4, -0.2, 8.9%, -8, -16, -3.3
- COc1ccc(NC(=O)c2cc(C(C)C)on2)cc1OC
  -13, 0.0, 5.0%[38.3 µM], 2, -15, -1.0
- O=C(NCC1CCCO1)C1c2ccccc2C(=O)N1C1CCCCCCC1 (configuration not stated)
  21, -1.3, 0.7%, 5, 5, 0.9
- CN1CCN(c2ccc(S(=O)(=O)N3CCCCC3)cc2NC(=O)Cc2ccccc2F)CC1
  11, 0.4, 1.9%, -1, -13, 1.2
- COc1cc(NC(=O)c2cc3nc(-c4ccccc4)cc(-c4ccccc4)n3n2)cc(OC)c1OC
  95, 1.3, 11%[38.3 µM], -3, -15, -3.9
- Cc1cc(C)cc(N(CCC#N)C(=O)CSc2nc3nc(C)cc(C)n3n2)c1
  0, -0.1, 4.4%[38.3 µM], -3, 0, -1.5
- COc1ccc(NC(=O)C2(C)CCN2Cc2ccccc2OC(F)F)cc1OC (configuration not stated)
  /, 13, 0.0%, -15, -3, 1.2
- CCOc1ccc(C(=O)CSc2nnc(C3CC3)n2C)cc1
  -6, 0.6, -0.8%, 4, -3, -1.2

Part of the list above, as labelled records:
> Cn1nccc1CNC(=O)c1c(Cl)cnn1C
  TRPML1 inh = -14	TRPML1 ag = -0.2	PINK1 expr mod = 0.5%	Six1-Eya2 inh = 25	D2 PAM = -3	D2 agonist = -2.6
> CC1(C(=O)N(c2ccccc2)C(C(=O)NC2CCCC2)c2ccccn2)CC(=O)N=C2C=CC=CN21 (configuration not stated)
  TRPML1 inh = 11	TRPML1 ag = 1.7	PINK1 expr mod = 3.0%	Six1-Eya2 inh = -1	D2 PAM = -12	D2 agonist = -1.9
> CCc1cc2c(SCC(=O)N3CC(=O)Nc4ccccc43)ncnc2s1
  TRPML1 inh = -2	TRPML1 ag = 3.0	PINK1 expr mod = -1.2%	Six1-Eya2 inh = -4	D2 PAM = 2	D2 agonist = -3.6
> O=Cc1ccc(N2CCCC2)c(F)c1
  TRPML1 inh = -10	TRPML1 ag = -0.5	PINK1 expr mod = -1.8%	Six1-Eya2 inh = 0	D2 PAM = 2	D2 agonist = -2.8

Following part:
The line under a structure holds: TRPML1 inh, TRPML1 ag, PINK1 expr mod, Six1-Eya2 inh, D2 PAM, D2 agonist
- CC(NC(=O)c1ccc(N(C)C)cc1)c1ccc(F)cc1 (configuration not stated)
  -5, -0.8, 3.2%, 2, -4, -0.2
- CCOC(=O)C(C)Oc1cccc2c(=O)n(CC(=O)NCc3ccc(F)cc3)ccc12 (configuration not stated)
  19, -1.1, 15%, 12, -12, -3.0
- CCOc1cc2[nH]c(=O)n(CCC(=O)N3CCN(c4cccc(Cl)c4)CC3)c(=O)c2cc1OCC
  4, -0.7, 0.4%, /, /, /
- CC(NCc1ccc2c(c1)OCO2)C(=O)NC1CCCc2ccccc21 (configuration not stated)
  3, -1.1, -3.0%, -6, -19, -4.1
- CCS(=O)(=O)Nc1ccc(C2=NN(C(=O)c3ccco3)C(c3ccc(C)cc3)C2)cc1 (configuration not stated)
  7, 1.6, -0.4%[38.3 µM], -8, -2, -1.9
- CCOc1ccccc1C(=O)NCC(=O)NNC(=O)c1csc(N2CCOCC2)n1
  -1, -0.6, 0.0%, 0, -12, -0.9
- CCC1Oc2ccc(C)cc2N(CC(=O)NCCc2ccccc2)C1=O (configuration not stated)
  20, -0.2, -0.2%, /, /, /
- COc1ccc(Br)cc1CNC(=O)c1cc2ccccn2n1
  5, -0.7, -0.6%, /, /, /

Not a hit list; about 1% have a hit in one of these screens.
